# CapD inh – CapD enzyme inhibition. purified CapD enzyme, fluorescence intensity read-out; hits give low values; some hits fall short of the stated cut. z-score (test concentration not listed). 0.23% of 140,000 active;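 active means z-score under -4 in either of two replicates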;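 further: stock transfer was 100 nL into about 40 µL; score is relative to mean and spread of the plate; one replicate is shown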
# AID504770 – growth inhibitors of E. coli YBA685 in a screen for V. cholerae RctB (chromosome II replication) inhibitors; E. coli YBA685 rctB-dependent plasmid, OD600 growth, 3 h; hits give low values; z-score (no concentration beside the values); 0.27% of 130,000 active; AID 504770;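 active means z-score under -2 on both plates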;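 further: wells of about 30 µL received 100 nL stock; score is relative to mean and SD of the test wells; the first replicate is given; strong numbers were not always called active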
# * marks the source's active call; other numbers are inactive results; · = no result given.
SMILES,CapD inh,AID504770
CCOC(=O)CCc1c(C)nc2ccc(Br)cn2c1=O,-0.21,-1.3
Cc1ccc(C(=O)NNC(=O)c2ccncc2)c(C)c1,0.36,·
COc1ccc(CCNc2nc3c(c(=O)n(C)c(=O)n3C)n2Cc2cccc(Br)c2)cc1OC,0.545,·
CC1=NN(C(=O)c2ccc(Cl)cc2)C(C)(C)C1,8.19,-0.85
CC(=O)Nc1ccc(-c2csc(N)n2)cc1,·,-0.45
CCOC(=O)N1CCC(NC(=O)c2cc(C(=O)Nc3ccc(F)cc3F)ccc2CO)CC1,-0.4,-0.4
O=C(c1ccc(Cl)c(Cl)c1)N1CCc2c([nH]c3ccccc23)C1,-0.975,·
CCOC(=O)/C(C#N)=N/Nc1cc(C(N)=O)c(Cl)cc1Cl,-0.505,1.05
CCN1C(=O)c2ccc(-c3nc4ccccc4c(=O)o3)cc2C1=O,-0.06,-0.35
CSc1sc(C(=O)N(C)C)c2c1S(=O)(=O)N(C)c1ccccc1-2,-0.17,0.85

# In another format: entries from further up.
canonical_smiles	CapD inh	AID504770
CC1=NN(C(=O)c2ccc(Cl)cc2)C(C)(C)C1	8.19	-0.85
CC(=O)Nc1ccc(-c2csc(N)n2)cc1	·	-0.45
CCOC(=O)N1CCC(NC(=O)c2cc(C(=O)Nc3ccc(F)cc3F)ccc2CO)CC1	-0.4	-0.4
O=C(c1ccc(Cl)c(Cl)c1)N1CCc2c([nH]c3ccccc23)C1	-0.975	·

# The listing continues:
SMILES,CapD inh,AID504770
Cc1noc(-c2cccs2)c1C(=O)NNC(=O)OCc1ccc(C#Cc2ccccc2)s1,3.3,·
COCC(C)Nc1nc(-c2ccc(OC)c(OC)c2)cs1 (stereo not given),·,0.25
COC(=O)c1cn(CC(=O)NCc2ccc3c(c2)OCO3)c2ccccc12,0.245,0.55
O=C(NCc1ccc(Cl)cc1)c1ccc2c(c1)N(Cc1cccc(F)c1)C(=O)CS2=O (stereo not given),0.55,-1.4
O=C1S/C(=C\c2ccc3c(c2)OCO3)C(=O)N1Cc1ccc(F)cc1,0.185,0.5
O=C(NCCN1CCc2ccccc2C1)C1CC(=O)N(C2CCCC2)C1 (stereo not given),-0.3,-0.5
Cc1ccc2nc(N(CCN(C)C)C(=O)c3ccco3)sc2c1,-0.03,-0.3
C[C@]12CC[C@H](O)C[C@H]1CC[C@@H]1[C@@H]2CC[C@]2(C)[C@@H](C3=CC(=O)OC3)CC[C@]12O,-0.885,·
CCN1CCCC(N)C1 (stereo not given),·,-0.7
OCCCNc1ncnc2c1c(-c1ccccc1)cn2-c1ccccc1,0.555,0.05
Cc1ccc(-n2nc3c([n+]2[O-])CCc2nonc2-3)cc1,-0.175,-0.85
O=C(/C=C1\OC(=O)c2ccccc21)Oc1cccc(C(F)(F)F)c1,-0.775,-0.75
O=S(=O)(Nc1ccccc1)c1cccc2cccnc12,3,-0.55
O=C1c2cccc3cccc(c23)N1CO,·,0
CCC(=O)Nc1ccc(NC(=O)c2ccc(-c3ccc(Cl)cc3)o2)cc1,-0.67,0.05
c1ccc2nc(Sc3ncn[nH]3)c(Sc3ncn[nH]3)nc2c1,-0.03,0.35
Cc1cc(/C=N/NC(=O)C(C)Oc2ccc(C#N)cc2)c(C)n1-c1nccs1 (stereo not given),·,-0.25
CCCCn1c(-c2ccc(OCC)cc2)cnc1NCc1cccc(Cl)c1,1.16,0.2
CNc1cccc(-c2ccc3nnc(C)n3n2)c1,-0.655,-0.55
COC(=O)C1(c2ccccc2)NC(c2ccc(O)cc2)C2C(=O)N(c3ccc4c(c3)OCCO4)C(=O)C21 (stereo not given),·,-0.65
C#CCn1c2ccccc2c2nc3ccccc3nc21,0.18,·
CC(C)NC(=O)C1CCC(=O)N1Cc1ccc(F)cc1 (stereo not given),-0.995,-0.9
CN(Cc1ccco1)C(=O)C1CCCN1S(=O)(=O)c1cccc2nsnc12 (stereo not given),0.27,-0.15
Cn1c(/C=C/N2CCOCC2)c(C(=O)c2ccc(Br)cc2)c(=O)n(C)c1=O,-1.48,-0.6
CCC(=O)c1ccc(SC(=O)N(C)C)cc1O,-0.9,·
CCCOC(=O)C1=C(C)NC2=C(C(=O)CC(c3ccc(OC)c(OC)c3)C2)C1c1ccc(OCC)c(OC)c1 (stereo not given),18.6,·
O=C(O)c1ccccc1N(Cc1ccccc1)C(=O)c1cccs1,0.245,0.5
CCC(=O)NC(c1ccco1)c1c(OC(C)=O)ccc2ccccc12 (stereo not given),0.035,-0.85
CSc1nc2ccccc2n1CC(=O)N(c1ccccc1)C(C)C,-0.07,-1.8
Fc1cccc(-c2nc(-c3ccccc3)no2)c1,-0.095,-0.8
CS(=O)(=O)CS(=O)(=O)Nc1cc(Cl)cc(Cl)c1,0.81,-0.25
Cc1ccc(C)n1-c1ccc(-c2nnco2)cc1,·,1.3
C=C(c1ccccc1O)n1ccnc1,0.625,-0.15
COc1ccc(CCNC(=O)c2ccc3nc(-c4ccc(OC)c(OC)c4)c(-c4ccc(OC)c(OC)c4)nc3c2)cc1OC,0.77,·
CCOc1ccc(-n2cnnn2)cc1S(=O)(=O)NC1CC1,-0.1,0.5
O=c1c2[nH]c3ccccc3c2ncn1CCN1CCN(Cc2ccccc2)CC1,3.12,0
CC(C)c1ccc(NC(=S)NCCC(=O)O)cc1,-0.72,·
Nc1nc2ccccc2o1,·,0.15
CCOC(=O)c1c(NC(=O)c2ccc3c(c2)OCO3)sc(C(=O)Nc2ccc(OC)cc2OC)c1C,-0.675,·
Cc1c(/C=C2\SC(=Nc3ccccc3)N(C3CCCC3)C2=O)c2ccccc2n1CC(N)=O,-1.19,0.55
C=C1CCC(O)C2(C)CCC3C(C)C(=O)OC3C12O (stereo not given),0.76,0.55
O=C(CSc1nnc(-c2cccs2)n1Cc1ccco1)Nc1ccc2c(c1)OCO2,-0.295,-0.9
O=C(NC(OCc1ccccc1)(C(F)(F)F)C(F)(F)F)c1ccccc1,-0.42,-1.35
OC(CCl)CN1CCN(c2cccc(C(F)(F)F)c2)CC1 (stereo not given),0.415,-1.3
COC(=O)c1ccc2c(=O)n(CCN3CCOCC3)c(SCC(=O)Nc3cccc(C(F)(F)F)c3)nc2c1,-0.955,·
O=C(NC(C(=O)c1ccccc1)n1cnccc1=O)c1ccccc1 (stereo not given),-0.64,-0.2
c1csc(C2=NN(c3nc(-c4ccc5ccccc5c4)cs3)C(c3ccoc3)C2)c1 (stereo not given),0.545,·
O=C1OC(c2ccccc2)=N/C1=C\N1CCCCC1,-0.395,-1.7
C=CC(=O)Nc1ccc2c(c1)OCCOCCOCCOCCO2,0.12,·
CNc1ccc2c(c1)OCCO2,·,-1.55
# Additional compounds.
SMILES,CapD inh,AID504770
CCSc1nnc2c3ccccc3ncn12,·,0.05
CNC(=S)NCc1ccc(Cl)cc1,-0.01,-1
O=C(CC1(O)C(=O)N(CN2CCOCC2)c2ccccc21)c1ccccc1 (stereo not given),0.155,1.3
Fc1nc(N2CCOCC2)c2c(c1Cl)Oc1ccccc1O2,14.7,0.3
Nc1cccc(/C=C/C(=O)O)c1,-1.03,-0.45
Cc1cc(C)c2c3c(sc2n1)C1(CCSCC1)C(C#N)=C(N)O3,0.51,-1.05
Cc1nc(-c2cc(Cl)c(Cl)s2)cs1,-0.03,-0.8
O=C(O)/C=C/c1ccc(OCc2cn3ccccc3n2)cc1,·,-1.7
Cc1nn(CC(C)C)c(Cl)c1C(=O)NC1CC1,·,-0.5
Clc1ccc(-c2csc(-c3ccno3)n2)cc1Cl,1.2,-1
CC1SC(C)C(=O)N(CC(=O)NCc2ccco2)C1=O (stereo not given),0.18,-0.3
CC(C)N1C(=O)CN(NC(=O)c2cc3c(s2)CCCC3)C1=O,·,1
O=C(N/N=C/c1ccnc2ccccc12)c1ccc(C(F)(F)F)cc1,0.09,·
Cc1occc1C(=O)N=Nc1cc(C(C)(C)C)c(O)c(C(C)(C)C)c1,-0.995,-0.4
O=c1cc(CSc2nc3ccccc3[nH]2)nc2sccn12,-0.065,-0.25
CCSc1nnc2n(-c3ccccc3)c(=O)c3c4c(sc3n12)CCCC4,·,-0.05
COc1ccc(CNC(=O)c2ccc3c(c2)OCCO3)cc1,-0.075,0.45
O=S(=O)(/C=C/c1ccccc1)N1CCN(c2ncnc3sccc23)CC1,·,0.05
O=c1[nH]cnc2[nH]ncc12,0.59,0.45
Cc1cc(Br)c2c(c1)/C(=C1/SC(=S)N(N)C1=O)C(=O)N2C,0.01,-1

# Full records, looked up by structure. Order of screens: CapD inh	AID504770
# Results for COc1ccc(CNC(=O)c2ccc3c(c2)OCCO3)cc1 → -0.075	0.45
# Results for O=C(N/N=C/c1ccnc2ccccc12)c1ccc(C(F)(F)F)cc1 → 0.09	·

# The listing continues:
SMILES,CapD inh,AID504770
CCc1cc(Br)ccc1S(=O)(=O)NCCCN1CCCC1=O,-0.34,·
CCN(C(=O)CSc1nnc(COc2ccccc2)o1)c1ccccc1,-0.495,0.6
Cc1cc(C)n(CN2CCN(C(=O)c3cccs3)CC2)c(=S)c1C#N,·,0.05
COc1cc(OC)nc(C(SCCN)c2ccccc2)n1 (stereo not given),-0.365,·
CC(C)(C)OC(=O)C(Cc1c[nH]c2ccccc12)NC(=O)OCc1ccccc1C(F)(F)F (stereo not given),-0.18,·
O=C(c1ccco1)N1CCN(C(=O)c2cccc3c2C(=O)N(C2CCCCC2)C3)CC1,0.335,-0.6
COc1ccc(/C=C2/SC(=O)N(CCC(=O)Nc3ccc(C)cc3)C2=O)cc1OC,0.625,·
O=C(CCN1C(=O)c2ccccc2C1=O)Oc1cccc2cccnc12,·,-0.75
COc1ccc(CCCOC(=O)NNC(=O)c2ccc(OC)cc2)cc1,0.11,·
CC(C)n1cc(-c2ccccc2NC(=O)c2ccco2)cn1,-0.255,·
CC1(C)CC(N(Cc2ccccc2)C(=O)Nc2ccc(F)cc2F)c2cccn21 (stereo not given),-0.14,·
COc1ccc(NC(=O)CSc2nc3ccccc3c(=O)n2CC2COc3ccccc3O2)c(OC)c1 (stereo not given),-0.355,-0.7
Cc1ccc(S(=O)(=O)/N=C(/Nc2nc(C)cc(C)n2)N2CCc3ccccc32)cc1,0.04,-1.55
COc1cc(N(C)C)ccc1CN1CCC(NC(=O)c2cnc3c(c(C)nn3C)c2OC)C1 (stereo not given),-0.815,·
CC(=O)Nc1ccc(S(=O)(=O)NCCC(=O)N2CCN(c3cccc(C(F)(F)F)c3)CC2)cc1,·,-0.05
O=C(CNCCN1CCOCC1)N1CCc2ccccc2C1,·,-1.45
Clc1cc2c(c(C[n+]3ccccc3)c1)OCOC2,-0.195,0.15
O=C(O)c1ccccc1I,0.785,·
COc1cc(NC(=O)c2ccc(C(=O)C(F)(F)F)cc2)c(Cl)cc1Cl,-0.515,·
OCC(O)C(O)C(O)c1cnc2ccccc2n1 (stereo not given),·,-0.15
COC(=O)C1=C(N)Oc2cc(N(C)C)ccc2C1c1ccccc1OC (stereo not given),0.58,0.8
CCOc1ccc(C2=NN3C(C2)c2cccc(OCC)c2OC3c2ccc(SC)cc2)cc1 (stereo not given),-0.81,·
O=C(O)CSCCn1cccn1,·,1.7
CC1CN(C(=O)Cc2cccs2)CC(C)O1 (stereo not given),-0.77,0.45
O=c1c2ccccc2cnn1CCO,0.005,·
CC1=C(C(=O)Nc2cccc(C(=O)N3CCN(C4CCCCC4)CC3)c2)SCCO1,0.305,-1.45
Cc1cccc(-n2cnc3cc(C(=O)NCC4CCCO4)ccc32)c1 (stereo not given),-0.5,0.6
Cc1cc(C)nc(N(C)c2cccc(C(=O)O)c2)n1,-0.275,·
COc1ccc(C(=O)/C=C/Sc2nccc(C)n2)cc1,-0.58,-0.3
COc1ccc(-c2c(C(F)(F)F)oc3c(CN4CCC(C)CC4)c(O)ccc3c2=O)cc1OC,-0.525,·

# Filtered by structure: those above containing a tert-butyl group
SMILES,CapD inh,AID504770
Cc1occc1C(=O)N=Nc1cc(C(C)(C)C)c(O)c(C(C)(C)C)c1,-0.995,-0.4
CC(C)(C)OC(=O)C(Cc1c[nH]c2ccccc12)NC(=O)OCc1ccccc1C(F)(F)F (stereo not given),-0.18,·

# (cont.)
SMILES,CapD inh,AID504770
COc1ccc(N=C2C(=O)Nc3ccccc32)cc1,-0.8,-0.6
O=S(=O)(NCCC1=CCCCC1)c1ccc(F)c(F)c1,0.07,·
CC1CCCCN1C(=O)CC(=O)N1CCCCC1C (stereo not given),1.23,-0.3
CC(C)(CC(=O)O)CC(=O)Nc1ccc(Cl)cc1Cl,0.815,0.1
Cc1ccc(NC(=O)c2cc3ccccc3oc2=N)cc1,-0.295,0.5
Cc1cccc2cc(CNCc3ccco3)c(=O)[nH]c12,·,-0.45
CC1CCCC(NC(=O)Cn2ncc3c(Cl)cccc32)C1C (stereo not given),0.695,0.65
COc1cc(C2NC(=O)NC(C)=C2C(=O)OC2CCCC2)ccc1OCc1ccccc1 (stereo not given),-0.06,·
CCOC(=O)c1[nH]c(Cc2[nH]c(C(=O)OCC)c(C)c2CC(=O)OC)c(CCC(=O)OC)c1C,·,-0.55
COc1ccc(C(=O)COc2c(F)c(F)cc(F)c2F)c(OC)c1,·,-0.15

# Part of the list above, with values under each structure.
# Below each compound – CapD inh	AID504770
Clc1ccc(-c2csc(-c3ccno3)n2)cc1Cl
 : 1.2	-1
CC1SC(C)C(=O)N(CC(=O)NCc2ccco2)C1=O (stereo not given)
 : 0.18	-0.3
CC(C)N1C(=O)CN(NC(=O)c2cc3c(s2)CCCC3)C1=O
 : ·	1
O=C(N/N=C/c1ccnc2ccccc12)c1ccc(C(F)(F)F)cc1
 : 0.09	·

# The list continues.
SMILES,CapD inh,AID504770
O=C(CSCc1ccc(F)cc1)Nc1ccc(N2CCOCC2)cc1N1CCOCC1,·,-0.1
CCOc1ccc(CN(CCc2ccc3c(c2)OCO3)Cc2cccnc2)cc1,0.11,0.15
O=C(CSC1CCCCC1)N1CCCCC1,0.615,-0.75
CCOc1ccc(CCNc2nnc3c4ccccc4n(CC)c3n2)cc1,0.665,0.3
CS(=O)(=O)c1sc(C(N)=O)c2c1C=CCC2,1.22,-0.5

# Screening results (PubChem)
